ALR inh: blocks human ALR sulfhydryl oxidase activity; AID 485317; actives 3.8% (n = 290,000); P55789; inhibition, % (concentration not given with the values); purified ALR, DTT oxidation, H2O2 HRP-luminol luminescence;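 active = mean and each replicate at 75% or more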;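 also: stock transfer was 7.5 nL into about 7.5 µL; 0% = neutral wells and 100% = wells with inactivated enzyme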
Target sequence (P55789 whole entry, looked up): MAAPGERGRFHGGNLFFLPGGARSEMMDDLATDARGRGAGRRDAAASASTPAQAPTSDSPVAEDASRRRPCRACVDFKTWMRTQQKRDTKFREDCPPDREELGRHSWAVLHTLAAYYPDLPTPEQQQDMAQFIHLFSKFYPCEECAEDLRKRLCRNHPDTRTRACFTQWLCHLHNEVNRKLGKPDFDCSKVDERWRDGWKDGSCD
B2AR ag: agonists of human beta-2 adrenergic receptor inducing internalization | Am2.2-beta2AR cells, FAP receptor internalization, flow cytometry; reference of the scale not given here | actives 0.43% (n = 340,000) | AID 504454 | response, % (no concentration beside the values);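 active = response above a set limit, near 3 SD of response in nonfluorescent compounds, cut at about 42% in these data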;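 also: stock transfer was 100 nL into about 11 µL; a reference agonist was the positive control; negative values mostly stem from fluorescent compounds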
Target sequence (P07550 whole entry, looked up): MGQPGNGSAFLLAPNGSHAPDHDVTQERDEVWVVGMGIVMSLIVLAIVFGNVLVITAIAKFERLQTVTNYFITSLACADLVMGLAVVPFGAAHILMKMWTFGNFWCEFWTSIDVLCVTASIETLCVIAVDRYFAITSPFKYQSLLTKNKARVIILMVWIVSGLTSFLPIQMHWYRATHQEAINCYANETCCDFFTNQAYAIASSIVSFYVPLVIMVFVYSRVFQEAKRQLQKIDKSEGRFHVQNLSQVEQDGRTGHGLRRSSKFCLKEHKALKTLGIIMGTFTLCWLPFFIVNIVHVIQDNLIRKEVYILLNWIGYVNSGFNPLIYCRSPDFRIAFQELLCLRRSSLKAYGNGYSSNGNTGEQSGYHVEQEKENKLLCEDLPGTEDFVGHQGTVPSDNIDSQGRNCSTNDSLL
Ecoli rRNA inh: selective bacterial rRNA inhibition in E. coli; E. coli WT GFP vs humanized-ribosome RFP mutants, fluorescence, 24 h; active compounds read low; DMSO median 0, no signal -100; GFP signal change (wild-type ribosome), % (no concentration beside the values); actives 1.6% (n = 350,000);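 active = significant combined selectivity score with lowered wild-type GFP, culture density cut under 30%, mutant RFP and density less affected; inactive = any of these conditions unmet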; also: one replicate is shown; some compounds called inactive have numbers as strong as hits
HNF4A DNA FP: change in binding of human HNF4 alpha to DNA | P41235 | HNF4a-FITC DNA binding, fluorescence polarization, 1 h | activity change, % at 10 µM | actives 0.3% (n = 360,000); in the data active = activity change above about 30%, passing the limit was not always enough;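 also: controls were the assay level and a saturating level of protein; the project sought stronger binding though the title names inhibitors; some compounds called inactive have numbers as strong as hits; positive values seem to mean higher polarization but the record does not say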
FGF22 binding: FGF22 (human) thermal shift binding. Q9HCT0. recombinant FGF22 thermal shift, SYPRO orange fluorescence; percent of sucrose octasulfate shift, DMSO zero. calls only at 9.99 µM. actives 1.5% (n = 340,000);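 active = melting point raised past a set limit in the mean and every replicate; three in four hits are not shown here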
UCH37 inh: blocks the human deubiquitinase UCH37; Q9Y5K5; purified proteasome/UCH37, Ub-AMC cleavage fluorescence; inhibition, % (no concentration beside the values); actives 0.33% (n = 330,000); AID 588478;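 active = mean of two replicates above 20%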;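 also: 0% = compound-free wells with enzyme and 100% = wells lacking proteasome; stock transfer was 100 nL into about 20 µL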
Target sequence (Q9Y5K5 whole entry, looked up): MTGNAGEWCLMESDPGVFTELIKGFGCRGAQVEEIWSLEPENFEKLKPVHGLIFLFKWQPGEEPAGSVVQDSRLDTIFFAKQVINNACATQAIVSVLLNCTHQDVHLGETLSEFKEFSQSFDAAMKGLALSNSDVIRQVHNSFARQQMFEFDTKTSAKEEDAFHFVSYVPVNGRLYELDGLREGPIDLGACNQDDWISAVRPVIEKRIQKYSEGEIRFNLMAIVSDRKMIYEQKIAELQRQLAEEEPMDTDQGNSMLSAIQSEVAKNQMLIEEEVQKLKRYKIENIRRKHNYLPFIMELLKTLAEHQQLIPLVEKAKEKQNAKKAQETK
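Material: Human UCH37 enzyme supplied as purified proteasome complex | Schedule: 30 min compound-proteasome preincubation then 25 min substrate reaction, room temperature | Detection: AMC fluorescence from Ub-AMC cleavage, excitation 355 nm, emission 460 nm | Benchmarks: Wells without proteasome as full block, compound-free enzyme plus substrate as uninhibited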
Ecoli growth: inhibitors of Escherichia coli growth. OD600, 23 h; active compounds read low. OD600 absorbance (concentration not given with the values). actives 0.21% (n = 330,000). AID 1053175;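 active = OD600 absorbance below the run mean of sample wells minus 3.6 SD, in any replicate, cut at about 0.56 in these data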;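 also: stock transfer was 300 nL into about 60 µL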
Ecoli rRNA inh OD600: also measured in Ecoli rRNA inh; calls as there; OD600 change, %; measured here: OD600 growth;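 optical density of the mix in the first replicate; 0 = DMSO median and -100 = no signal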
Ecoli rRNA inh RFP: also measured in Ecoli rRNA inh; calls as there; RFP signal change, %; measured here: RFP humanized mutant strains;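 first replicate; 0 = DMSO median and -100 = no signal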
* marks the source's active call; other numbers are inactive results; i = inactive; / = not tested or not shown. Not all compounds are listed; the hit share may differ from the screen's.

Compound	Ecoli growth	UCH37 inh	ALR inh	Ecoli rRNA inh RFP	FGF22 binding	Ecoli rRNA inh OD600	HNF4A DNA FP	B2AR ag	Ecoli rRNA inh
CCOc1ccc(N=Nc2cc(C(C)C)ccc2O)cc1	0.7	5.5	0	/	/	/	-2.1	1	/
CCn1nc(NC(C)=O)c2cc3cccc(C)c3nc21	0.66	-42	-6	0.3	i	-3	-4.5	1	1
COc1cc(NC(=O)CN2CCN(c3ccccc3O)CC2)c(C)cc1[N+](=O)[O-]	0.69	3.1	-86	/	/	/	-0.8	2	/
C=CCNC(=S)N1CCN(c2cccc(C(F)(F)F)c2)CC1	0.68	5.2	10	-24	i	-77	-3.2	-1	-44
O=C(NCc1ccccc1)c1cc(C2CCCCN2C(=O)OCCF)on1 (stereo not drawn)	/	/	/	-0.7	i	1	3.0	/	2
CN(C)/C=C(\C#N)C(=O)N/N=C/c1ccc(F)cc1	/	/	13	-0.3	i	8	-1.7	12	0
Cc1ccc(O)c(N=Nc2ccccc2)n1	0.66	1.8	4	1.9	i	9	1.3	-8	4
Cc1ccc(NC(=S)NC(=O)c2ccc(-c3ccccc3)cc2)cc1	0.77	6.7	/	/	/	/	0.0	3	/
COc1ccc(CN2CC(C(=O)NC3CCCCC3)CC2=O)cc1 (stereo not drawn)	0.64	-0.3	3	2.8	i	9	-0.9	3	9
O=C(CCc1nc2ccccc2s1)Nc1cccnc1	0.7	4.6	-8	-1.8	i	-6	-3.3	7	-3
Cc1ccccc1-c1nc(NC(C)C)nc2cc(-c3ccccc3)sc12	/	/	/	-19	i	-65	-0.5	/	-48
CC[n+]1c(/C=C2\C=C(C)CC(C)(C)C2)sc2ccccc21	0.7	12	/	/	/	/	8.3	-3	/
CCOC(=O)C1=C(C)OC(N)=C(C#N)C1c1ccc(O)c(OC)c1 (stereo not drawn)	0.69	2.5	/	/	/	/	0.2	8	/
COc1ccc(C(=O)C2CCCN(Cc3cccn3-c3nccs3)C2)cc1OC (stereo not drawn)	0.72	2.3	/	-3.6	i	9	-0.9	12	11
COc1ccc2oc(C(=O)OCC(=O)NC3CCS(=O)(=O)C3)c(C)c2c1 (stereo not drawn)	/	/	/	-0.3	i	5	-2.0	/	2
COc1ccc2c(=O)cc(-c3ccccc3F)oc2c1	0.67	-20	2	-4.5	i	-36	-0.3	3	-20
Cc1cc(Nc2ccccc2Cl)n2nnnc2n1	0.68	1.5	2	/	/	/	1.3	2	/
CCc1cc(CNC(=O)c2cc(COc3ccc(C)nc3)on2)on1	0.68	2.6	-14	0.2	i	8	1.6	-5	4
COc1ccc(S(=O)(=O)N2CCC(C(=O)NCc3cccnc3)CC2)cc1OC	0.68	2.0	-3	1.1	i	5	-3.9	-3	4
NC(=O)C1CCN(C(=O)CN2CCc3ccccc32)CC1	0.7	-0.9	-20	/	/	/	2.3	6	/

4 entries from above, with two lines to a compound.
Results follow in this order: Ecoli growth, UCH37 inh, ALR inh, Ecoli rRNA inh RFP, FGF22 binding, Ecoli rRNA inh OD600, HNF4A DNA FP, B2AR ag, Ecoli rRNA inh
Cc1ccccc1-c1nc(NC(C)C)nc2cc(-c3ccccc3)sc12
  /, /, /, -19, i, -65, -0.5, /, -48
CC[n+]1c(/C=C2\C=C(C)CC(C)(C)C2)sc2ccccc21
  0.7, 12, /, /, /, /, 8.3, -3, /
CCOC(=O)C1=C(C)OC(N)=C(C#N)C1c1ccc(O)c(OC)c1 (stereo not drawn)
  0.69, 2.5, /, /, /, /, 0.2, 8, /
COc1ccc(C(=O)C2CCCN(Cc3cccn3-c3nccs3)C2)cc1OC (stereo not drawn)
  0.72, 2.3, /, -3.6, i, 9, -0.9, 12, 11

(next part)
Compound	Ecoli growth	UCH37 inh	ALR inh	Ecoli rRNA inh RFP	FGF22 binding	Ecoli rRNA inh OD600	HNF4A DNA FP	B2AR ag	Ecoli rRNA inh
C=CCn1c(SCC(=O)NCc2cccs2)nnc1C1CCCCC1	0.63	0.0	-3	/	/	/	-1.1	-3	/
O=C(CC1SC(N2CCCC2)=NC1=O)Nc1ccc(C(=O)NCc2ccc(F)cc2)cc1 (stereo not drawn)	0.66	-0.1	/	-1.1	i	-1	-0.1	-1	2
O=C(NCc1ccncc1)C(=O)NCC1OCCN1S(=O)(=O)c1ccccc1 (stereo not drawn)	/	/	/	-0.3	i	19	3.8	/	7
COc1cccc(CNC(=O)N2CCN(c3ccccc3C)CC2)c1	0.67	2.8	-1	5.4	i	-12	2.9	7	1
COCCN(CCOC)Cc1cc(=O)oc2ccccc12	/	/	/	-5.9	i	2	1.8	/	1
CC(NC(=O)[C@H](NC(=O)[C@@H]1Cc2ccccc2CN1)c1ccccc1)c1ccccc1 (stereo partly drawn)	0.8	-1.9	/	/	i	/	0.3	14	/
CC(C)n1c(SCC(N)=O)nc2c1c(=O)[nH]c(=O)n2C	0.65	1.5	/	/	/	/	1.9	1	/
COc1cc(SC)ccc1C(=O)Nc1ccncc1	0.66	-3.4	-10	-0.7	i	0	-0.3	9	-3
COc1ccc(-n2nc3cc(C)c(NC(C)=O)cc3n2)cc1	0.7	i	-7	3.4	i	9	2.4	-1	10
O=C(CCC(=O)N1CCOc2ccccc21)Nc1cc(F)ccc1F	0.77	3.0	-7	-0.8	i	-6	-1.1	-5	-3
Cc1cc(C)cc(C(=O)NCC(=O)OCC(=O)N2c3ccccc3NC(=O)C2(C)C)c1	0.67	5.0	-11	-0.3	i	13	2.7	2	9
Nc1cc(N)cc(C(=O)OCC(=O)Nc2cc(S(=O)(=O)N3CCCCC3)ccc2Cl)c1	0.69	-6.6	/	-8.6	i	20	3.6	2	-13
Cc1cc(=O)nc2c3ccccc3n(C(C)C(=O)NCCN3CCOCC3)n12 (stereo not drawn)	0.69	-1.3	-8	6.0	i	11	-3.4	3	16
Cc1ccc(S(=O)(=O)N2CCCCC2)cc1	0.66	-0.2	-8	-0.3	i	10	0.5	9	1
COc1ccc(C(CC(=O)N2CCCC2)c2c(OC)cc(OC)c3ccc(=O)oc23)cc1 (stereo not drawn)	0.7	-39	-9	-4.3	i	-6	-6.7	-16	-11
CCOC(=O)CCCCCCCCC(=O)Nc1ccc(-n2[nH]c(=O)cc2C)cc1	/	/	/	3.4	i	-18	1.5	-5	-9
COc1cc(/C=C/[N+](=O)[O-])ccc1OC(=O)c1cc2ccccc2oc1=O	0.68	0.3	13	-1.9	i	1	-3.9	54*	-6
Cc1ccc(-n2c(C)cc3c2CC(C)(C)CC3=O)cc1C	0.7	0.7	4	/	/	/	2.8	8	/
CCOc1ccc(C2C(C(=O)c3ccc(C)o3)=C(O)C(=O)N2CCN2CCOCC2)cc1OC (stereo not drawn)	0.68	5.6	-1	/	/	/	-0.9	-1	/
CCCn1c(SCC(=O)Nc2nnc(C)s2)nnc1-c1ccoc1C	0.75	2.1	-1	/	/	/	-2.2	3	/
O=C(CSc1nnc(-c2c[nH]c3ccccc23)n1-c1ccc(F)cc1)NCc1ccco1	0.66	3.7	-4	-4.9	i	1	-1.7	1	-3
CCc1c(-c2cccc(Br)c2)ncn1Cc1cccc(-c2ccccc2)c1	/	/	/	-1.8	i	9	-4.9	/	7
O=C1c2cccc3cccc(c23)C(=O)N1CCN1CCN(CC(O)COc2ccccc2)CC1 (stereo not drawn)	/	-0.7	0	/	/	/	5.2	-25	/
CCOC(=O)C1(C)CCCCN1C(=O)c1ccc(F)c(C)c1 (stereo not drawn)	/	/	/	0.4	i	3	-2.7	/	4
Fc1cccc(/C=N/Nc2ccc(Cl)nn2)c1	/	/	23	0.4	i	18	0.0	9	14
CCCCn1c(N)c(N(CCC(C)C)C(=O)c2ccc([N+](=O)[O-])o2)c(=O)[nH]c1=O	0.71	1.8	-15	8.0	i	1	1.0	6	12
Cc1cccc(N=Nc2c(N)n[nH]c2-c2ccc(Cl)cc2)c1	0.72	4.7	10	/	/	/	-0.5	3	/
Cc1ccc(C)n1-c1nccc(-c2ccco2)n1	0.7	-120	/	5.4	i	18	0.2	1	15
COc1cc(C(=O)Nc2cccc(-n3cnnn3)c2)cc(Cl)c1OC	0.69	4.7	-6	4.6	i	4	0.6	11	-10
COc1cccc(/C=C/C(=O)Nc2ccc(N3CCOCC3)cc2)c1OC	0.69	3.2	/	2.4	i	-5	1.2	21	-9
O=C(CCN1CCOCC1)c1ccc(Cl)cc1	0.65	0.4	96*	-0.4	i	17	5.3	5	18
N#C/C(=C(/O)COC(=O)c1ccc2c(c1)OCCO2)c1nc2ccccc2[nH]1	/	/	0	/	/	/	15	17	/
CC(C)C(NC(=O)/C(=C/c1ccco1)NC(=O)c1ccc(Br)o1)C(=O)O (stereo not drawn)	0.68	2.2	0	0.2	i	15	-8.9	9	9
CC1Cc2ccccc2N1C(=O)c1ccc(N2CCCCC2)c([N+](=O)[O-])c1 (stereo not drawn)	0.72	1.3	/	-4.8*	i	4.6*	-2.5	-7	-30*
CC(Sc1ccc(S(=O)(=O)N2CCN(C)CC2)cn1)C(=O)NC1CCCC(C)C1C (stereo not drawn)	/	/	/	0.3	i	4	0.3	/	4
CN1CCN(CC(O)COc2ccc(OCC(O)CN3CCN(C)CC3)cc2)CC1 (stereo not drawn)	0.72	0.3	-1	/	/	/	-2.0	-1	/
O=C(CSc1nc2c([nH]c3ccccc32)c(=O)n1-c1ccc(F)cc1)NCc1ccco1	0.71	-12	9	2.8	i	12	3.6	0	4
CCOc1cc(C2C3=C(CC(C)(C)CC3=O)OC3=C2C(=O)CC(C)(C)C3)cc([N+](=O)[O-])c1O	0.65	9.2	/	4.5	i	1	1.5	6	2

Shown with the structure last: part of the list above
Ecoli growth	UCH37 inh	ALR inh	Ecoli rRNA inh RFP	FGF22 binding	Ecoli rRNA inh OD600	HNF4A DNA FP	B2AR ag	Ecoli rRNA inh	SMILES
0.72	4.7	10	/	/	/	-0.5	3	/	Cc1cccc(N=Nc2c(N)n[nH]c2-c2ccc(Cl)cc2)c1
0.7	-120	/	5.4	i	18	0.2	1	15	Cc1ccc(C)n1-c1nccc(-c2ccco2)n1
